MLL AF4-AF9 inh = inhibitors of human MLL-AF4/AF9 interaction. 350,000 compounds, 0.47% hits. P42568. inhibition, % at 10 µM. AlphaScreen, biotin-AF4 peptide binding to FLAG-AF9;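 active means every replicate reaching a set inhibition limit, whatever the replicate mean, cut at about 25% in these data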;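 further: 0% = plate neutral control median and 100% = total signal loss; the record names both 10 and 1 µM as test concentration; the first replicate is given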
Target sequence (P42568 whole entry, looked up): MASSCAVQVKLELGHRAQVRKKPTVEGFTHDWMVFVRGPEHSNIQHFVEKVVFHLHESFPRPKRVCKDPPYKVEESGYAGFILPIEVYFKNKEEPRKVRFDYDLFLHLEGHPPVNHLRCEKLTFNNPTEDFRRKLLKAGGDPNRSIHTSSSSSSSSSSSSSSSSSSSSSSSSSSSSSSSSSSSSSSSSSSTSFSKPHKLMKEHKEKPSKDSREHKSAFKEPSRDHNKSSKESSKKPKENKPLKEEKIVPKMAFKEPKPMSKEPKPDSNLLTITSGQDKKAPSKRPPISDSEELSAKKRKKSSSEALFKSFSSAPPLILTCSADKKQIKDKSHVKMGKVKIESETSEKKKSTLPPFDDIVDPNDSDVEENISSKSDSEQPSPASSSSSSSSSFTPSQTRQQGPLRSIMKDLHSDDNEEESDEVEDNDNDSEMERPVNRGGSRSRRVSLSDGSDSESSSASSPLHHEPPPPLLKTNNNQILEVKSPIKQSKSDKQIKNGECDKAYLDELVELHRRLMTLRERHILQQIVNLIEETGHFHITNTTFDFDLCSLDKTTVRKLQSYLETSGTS
Ecoli rRNA inh = inhibitors of bacterial rRNA selective over humanized ribosomes. 350,000 compounds, 1.6% hits. E. coli WT GFP vs humanized-ribosome RFP mutants, fluorescence, 24 h; hits give low values; DMSO median 0, no signal -100. GFP signal change (wild-type ribosome), % (test concentration not listed). AID 720706;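 active means significant combined selectivity score with lowered wild-type GFP, culture density cut under 30%, mutant RFP and density less affected; inactive means any of these conditions unmet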; further: one replicate is shown; some compounds called inactive have numbers as strong as hits
FGF22 binding = FGF22 (human) thermal shift binding | Q9HCT0 | recombinant FGF22 thermal shift, SYPRO orange fluorescence; percent of sucrose octasulfate shift, DMSO zero | calls only at 9.99 µM | 340,000 compounds, 1.5% hits;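 active means melting point raised past a set limit in the mean and every replicate; three in four hits are not shown here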
Target sequence (Q9HCT0 whole entry, looked up): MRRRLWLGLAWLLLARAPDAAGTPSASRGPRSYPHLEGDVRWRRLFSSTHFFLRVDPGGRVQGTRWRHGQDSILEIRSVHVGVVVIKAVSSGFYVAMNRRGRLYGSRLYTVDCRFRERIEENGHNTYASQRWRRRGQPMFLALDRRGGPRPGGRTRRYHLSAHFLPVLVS
Ecoli rRNA inh OD600 = recorded beside Ecoli rRNA inh, whose call it bears; OD600 change, %; measured here: OD600 growth;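 optical density of the mix in the first replicate; 0 = DMSO median and -100 = no signal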
Ecoli rRNA inh RFP = recorded beside Ecoli rRNA inh, whose call it bears; RFP signal change, %; measured here: RFP humanized mutant strains;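 first replicate; 0 = DMSO median and -100 = no signal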
An asterisk follows results filed as active; i = inactive; & = joins results of further samples.

Sample of the layout:
Results follow in this order: MLL AF4-AF9 inh | Ecoli rRNA inh | Ecoli rRNA inh OD600 | Ecoli rRNA inh RFP | FGF22 binding
> COc1ccc2c3c(n(C)c2c1)[C@@H](CO)N(C(=O)Nc1ccc(F)cc1)CC31CCN(C(=O)NC2CCCC2)CC1
 : -1.0 | -3 | 0 | -1.3 | i
> COc1ccccc1CNC(=O)C[C@@H]1C[C@@H]2c3cc(NC(=O)c4cccnc4)ccc3O[C@@H]2[C@H](CO)O1
 : -0.8 | -6 | -9 | -5.1 | i
> CCCCCC(=O)N1C[C@@H](O)[C@H](n2cc(C3CC3)nn2)C[C@@H]1c1ccc(C)cc1
 : -1.8 | -10 | -5 | 4.7 | i

Results (from the top)
Results follow in this order: MLL AF4-AF9 inh | Ecoli rRNA inh | Ecoli rRNA inh OD600 | Ecoli rRNA inh RFP | FGF22 binding
> COc1ccc2c3c(n(C)c2c1)[C@@H](CO)N(C(=O)Nc1ccc(F)cc1)CC31CCN(C(=O)NC2CCCC2)CC1
 : -1.0 | -3 | 0 | -1.3 | i
> COc1ccccc1CNC(=O)C[C@@H]1C[C@@H]2c3cc(NC(=O)c4cccnc4)ccc3O[C@@H]2[C@H](CO)O1
 : -0.8 | -6 | -9 | -5.1 | i
> CCCCCC(=O)N1C[C@@H](O)[C@H](n2cc(C3CC3)nn2)C[C@@H]1c1ccc(C)cc1
 : -1.8 | -10 | -5 | 4.7 | i
> Cc1ccc(S(=O)(=O)N(C)C[C@H]2Oc3cc(Br)ccc3S(=O)(=O)N([C@H](C)CO)C[C@H]2C)cc1
 : -2.6&0.3&-0.3 | -4&-3 | -18&-9 | 0.0&1.3 | i
> COc1ccc(CN(C)C[C@@H]2Oc3c(NS(C)(=O)=O)cccc3C(=O)N([C@H](C)CO)C[C@H]2C)cc1
 : -0.2 | -2 | 9 | -0.7 | i
> CCOC(=O)C1(C)CCCCCN1C(=O)c1ccc(SC(F)(F)F)cc1 (stereo not given)
 : -2.7 | 9 | 20 | 0.7 | i
> O=Cc1cn(CCOc2ccc(F)cc2)c2ccccc12
 : -1.2 | -43 | -54 | 6.3 | i
> CCCC#Cc1ccc2c(c1)O[C@H](CN(C)C(=O)c1cnccn1)[C@@H](C)CN([C@@H](C)CO)S2(=O)=O
 : 1.0 | 1 | 0 | 0.4 | i
> CC(=O)c1ccsc1-c1c(C)cc2oc(=O)cc(-c3ccccc3)c2c1C
 : -5.2 | 2 | 20 | 3.0 | i
> COc1ccc(S(=O)(=O)Nc2ccc3c(c2)CC(=O)N([C@H](C)CO)C[C@H](C)[C@H](CN(C)C(=O)Nc2cccc4ccccc24)O3)cc1
 : -0.4 | -1 | 6 | 2.2 | i
> O=C(C[C@@H]1C[C@H]2c3cc(NS(=O)(=O)c4ccc(F)cc4)ccc3O[C@H]2[C@H](CO)O1)NC1CCCC1
 : -0.4 | -1 | -5 | -0.4 | i
> CO[C@H]1CN(C)C(=O)c2cc(NC(=O)NC(C)C)ccc2OC[C@@H](C)N(C(=O)CC2CC2)C[C@@H]1C
 : -0.8 | 5 | 5 | -2.8 | i
> CCOC(=O)/C=C/C(=O)Nc1cc(S(=O)(=O)Nc2ccc(OC)cc2)ccc1N1CCOCC1
 : 0.7 | 3 | 2 | 1.3 | i
> CSC(=Nc1ccccc1)N=C(SCc1ccccc1)N(C)C
 : -3.1 | -50 | -72 | -11 | i
> N#C[C@H]1[C@H](c2ccccc2)[C@@H](CO)N1C(=O)Cc1ccccc1
 : -0.3 | -1 | 13 | -1.5 | i
> Cc1ccc(S(=O)(=O)N(C)C[C@H]2Oc3c(NC(=O)Nc4ccccc4)cccc3C(=O)N([C@H](C)CO)C[C@H]2C)cc1
 : 2.8 | -8 | -14 | 7.6 | i
> CCS(=O)(=O)N1CCC2(CC1)CN(C(=O)c1ccc(F)cc1)[C@H](CO)c1c2c2ccc(OC)cc2n1C
 : 1.7 | 0 | -1 | 1.6 | i
> C[C@H]1CN([C@@H](C)CO)C(=O)c2cc(NC(=O)c3ccncc3)ccc2O[C@H]1CN(C)S(=O)(=O)c1ccc(Cl)cc1
 : -1.9 | -3 | -10 | 5.2 | i
> N#C[C@@H]1[C@@H](c2ccc(C#Cc3cccc(F)c3)cc2)[C@H](CO)N1C(=O)C1CCOCC1
 : -2.3 | 6 | 18 | 10 | i
> CC(O)(c1cccnc1)c1nc(-c2ccc(S(C)(=O)=O)cc2)cs1 (stereo not given)
 : -1.1 | 16 | 11 | 0.4 | i
> C[C@@H]1CN([C@@H](C)CO)C(=O)CCCn2nncc2CO[C@H]1CN(C)Cc1ccc2cccnc2c1
 : 0.2&0.4&-0.3 | 28&0 | 14&2 | 5.5&0.7 | i
> COc1ccc(S(=O)(=O)N(C)C[C@@H]2Oc3c(NC(=O)CCCCCC(=O)Nc4ccccc4N)cccc3C(=O)N([C@@H](C)CO)C[C@@H]2C)cc1
 : -3.2 | -1 | 7 | -1.1 | i
> Cc1noc(C)c1S(=O)(=O)N(C)C[C@H]1Oc2c(NS(=O)(=O)c3ccccc3)cccc2C(=O)N([C@@H](C)CO)C[C@H]1C
 : -1.3 | 0 | 6 | 0.1 | i
> CNC[C@@H]1Oc2c(NC(=O)c3cc(C)nn3C)cccc2C(=O)N([C@H](C)CO)C[C@H]1C
 : -2.0 | 4 | 5 | -1.6 | i
> COc1ccc(NC(=O)Nc2ccc3c(c2)[C@@H]2C[C@@H](CC(=O)NCC4CC4)O[C@@H](CO)[C@@H]2O3)cc1
 : 0.9 | -1 | 5 | 3.1 | i
> CNC[C@@H]1Oc2c(NS(=O)(=O)c3ccc(F)cc3)cccc2C(=O)N([C@H](C)CO)C[C@H]1C
 : -0.8 | 0 | 2 | -2.4 | i
> O=C(C[C@@H]1CC[C@H]2[C@@H](COC[C@@H](O)CN2Cc2ccc3c(c2)OCO3)O1)N1CCCCC1
 : -20 | -4 | 6 | 0.7 | i
> C[C@@H]1CN([C@@H](C)CO)C(=O)CCCn2nncc2CO[C@H]1CN(C)Cc1ccc2c(c1)OCO2
 : -1.3&0.1&-0.9 | 20&-1 | 14&-2 | 0.5&-0.3 | i
> CCCCNC(=O)c1c(N)[nH]c(C(=O)c2ccccc2)c1-c1ccccn1
 : 4.7 | -27* | -9.4* | 8.4* | i
> C/C=C/c1ccc2c(c1)O[C@H](CN(C)C(=O)c1cnccn1)[C@@H](C)CN([C@@H](C)CO)S2(=O)=O
 : -0.5 | 2 | 0 | -0.2 | i
> CC(C)n1c(CNC(=O)c2ccccc2F)nnc1SCC(=O)c1ccc(F)cc1
 : -29 | 14 | 17 | 18 | i
> C[C@H]1CN([C@@H](C)CO)C(=O)c2cc(-c3ccc(C(=O)N(C)C)cc3)cnc2O[C@H]1CN(C)Cc1ccc(C(=O)O)cc1
 : -7.3 | 8 | -2 | -1.8 | i
> C[C@H]1CCCCO[C@@H](CN(C)Cc2ccc(C(F)(F)F)cc2)[C@@H](C)CN([C@@H](C)CO)C(=O)c2cc(N(C)C)ccc2O1
 : 37* | -5 | -32 | 16 | i
> Cc1ccc(-c2cnc3c(c2)C(=O)N([C@H](C)CO)C[C@@H](C)[C@H](CN(C)C(=O)c2ccc(F)cc2)O3)cc1
 : 2.2 | -7 | -19 | -1.6 | i
> COc1ccccc1C(CNC(=O)c1cccc(S(=O)(=O)Nc2ccc(F)cc2)c1)N1CCCC1 (stereo not given)
 : 8.0 | 0 | -3 | 2.8 | i
> CN1c2ccc(-c3cccc(F)c3)cc2[C@@H]2[C@@H](CCN2C(=O)c2ccccc2F)[C@H]1CO
 : -1.7 | -8 | -12 | 20 | i
> COc1ccc(-c2ccc([C@@H]3[C@H](C#N)N(C(=O)C4CC4)[C@H]3CO)cc2)cc1
 : -1.7 | 0 | -16 | -1.3 | i
> C[C@H](CO)N1C[C@H](C)[C@H](CN(C)CC2CCCCC2)Oc2ccc(NC(=O)C3CC3)cc2C1=O
 : -0.8 | 6 | 14 | -3.0 | i
> C[C@H](CO)N1C[C@H](C)[C@H](CN(C)C(=O)Nc2cccc3ccccc23)Oc2c(NC(=O)c3nc4ccccc4s3)cccc2C1=O
 : 0.7 | -10 | -19 | 2.3 | i
> Cc1ccc(S(=O)(=O)N2C[C@H]3C(=O)C[C@@H](c4ccccc4)N(S(=O)(=O)c4ccc(C)cc4)[C@H]3C[C@H]2c2ccc(Cl)cc2)cc1
 : 0.4 | 17 | 17 | 0.6 | i

Later entries.
Molecule	MLL AF4-AF9 inh	Ecoli rRNA inh	Ecoli rRNA inh OD600	Ecoli rRNA inh RFP	FGF22 binding
COc1ccccc1-c1ccc2c(c1)[C@H]1[C@H](CCN1C(=O)C1CC1)[C@@H](CO)N2	2.3	6	8	-5.7	i
COc1ccccc1NC(=O)N(C)C[C@H]1OCc2cnnn2CCCC(=O)N([C@H](C)CO)C[C@H]1C	2.1&1.7	9&-3	10&1	1.3&0.2	i
Cc1ccccc1-c1cnc2c(c1)C(=O)N([C@@H](C)CO)C[C@H](C)[C@@H](CN(C)Cc1cncnc1)O2	-13	4	11	-1.9	i
O=C(N[C@H]1CC[C@@H](CCNC(=O)C2CCC2)O[C@H]1CO)c1ccccn1	-2.8	1	3	-1.5	i
COc1ccccc1CNC(=O)C[C@@H]1CC[C@H]2[C@H](COc3ccc(NC(=O)Nc4ccc(F)c(F)c4)cc3C(=O)N2C)O1	-2.4	-7	-14	1.6	i
C[C@@H]1CCCCO[C@H](CN(C)C(=O)CCC(F)(F)F)[C@@H](C)CN([C@H](C)CO)C(=O)c2cc(NC(=O)NC3CCCCC3)ccc2O1	-2.1	-1	5	-3.5	i
C[C@H]1CN([C@@H](C)CO)C(=O)Cc2cc(NC(=O)Nc3ccc4c(c3)OCO4)ccc2O[C@H]1CN(C)Cc1ccc(C(=O)O)cc1	-0.4	0	3	-0.9	i
CO[C@H]1CN(C)C(=O)c2cc(NC(=O)CC(F)(F)F)ccc2OC[C@H](C)N(C(=O)c2ccccc2F)C[C@H]1C	-1.8	-1	2	0.6	i
Cc1ccc(S(=O)(=O)N2C[C@@H]3[C@H]4CC[C@H](C4)[C@@H]3[C@@H](C)C2CC(=O)c2ccccc2)cc1 (stereo not given in full)	1.2	12	17	4.8	i
CC(=O)NC(c1ccccc1)c1nc(-c2cccc(C(=O)O)c2)cs1 (stereo not given)	-2.7	-2	-6	-1.4	i
C[C@@H]1CCCCO[C@H](CN(C)Cc2ccc3c(c2)OCO3)[C@H](C)CN([C@H](C)CO)C(=O)c2cc(NC(=O)c3ccccc3)ccc2O1	7.3	-1	-10	6.8	i
CN1C(=O)c2cc(NC(=O)c3cccs3)ccc2OC[C@H]2O[C@H](CC(=O)O)CC[C@@H]21	-1.6	2	3	-0.9	i
CCN1CC(=O)N2[C@@H](CO)[C@H](c3ccc(-c4cccnc4)cc3)[C@@H]2C1	-2.0	4	8	-3.6	i
O=C(C[C@@H]1C[C@@H]2c3cc(NC(=O)Nc4ccccc4F)ccc3O[C@@H]2[C@@H](CO)O1)NCc1ccccn1	-0.4	-4	8	-3.6	i
COc1ccc2c3c([nH]c2c1)[C@H](CO)N(C(=O)C1CCOCC1)CC31CCN(S(C)(=O)=O)CC1	-2.7	0	3	1.4	i
CN1C(=O)c2cc(NC(=O)c3cccs3)ccc2OC[C@@H]2O[C@@H](CC(=O)O)CC[C@H]21	-1.8	2	-3	1.0	i
CN(CC1CCCN(CCc2ccccc2F)C1)C(=O)c1cc2ccccc2o1 (stereo not given)	-1.4	8	6	-0.2	i
CO[C@@H]1CN(C)C(=O)c2cc(NS(=O)(=O)c3cccc(F)c3)ccc2OC[C@@H](C)N(Cc2cc(F)ccc2F)C[C@H]1C	-16	-2	-3	4.7	i
CCOC(=O)C1=CCN(S(=O)(=O)c2ccc(F)cc2)C1c1ccc(C)cc1 (stereo not given)	-0.4	-17	-45	-6.8	i
COc1ccc(NC(=O)N(C)C[C@H]2Oc3ccc(NC(=O)Nc4ccc(F)cc4)cc3C(=O)N([C@H](C)CO)C[C@H]2C)cc1	1.0	-5	-11	0.0	i
COc1cccc(S(=O)(=O)N(C)C[C@@H]2OCc3ccccc3-c3c(n(C)c4ccccc34)C(=O)N([C@@H](C)CO)C[C@@H]2C)c1	6.6	1	0	0.1	i
COC(=O)C1CC2=C(CCCC2=O)N(Cc2ccccc2)C1=O (stereo not given)	-0.6	9	10	-0.4	i
CCCC1NC(=O)c2cc3ccccc3cc2-n2c1nc1cc(Cl)ccc1c2=O (stereo not given)	3.2	-5	-1	-3.5	i
O=C(C[C@@H]1CC[C@H]2[C@@H](COC[C@H](O)CN2C(=O)Nc2cccc(F)c2)O1)NCc1ccccc1F	-0.3	-10	-4	0.5	i
CCC(=O)N1CCCCN2[C@H](CO)[C@H](c3ccc(-c4cccc(C#N)c4)cc3)[C@H]2C1	0.6	-4	9	0.2	i
CO[C@@H]1CN(C)C(=O)c2ccc(NC(=O)CN(C)C)cc2OC[C@@H](C)N(C(=O)C2CCCCC2)C[C@H]1C	0.9	3	-1	1.0	i
COCCCN1C(=O)C(CC(=O)NCc2cccs2)CC(C(=O)N(C(C)C)C(C)C)=C1C (stereo not given)	-0.8	5	5	-2.5	i
O=C1CCC(c2ccccc2)N1c1ccccc1 (stereo not given)	-2.6	3	7	2.3	i
O=C(CC(=O)c1cccs1)c1ccncc1	6.9	-22*	-12*	-8.0*	i

Some of the compounds tested, so the mix of outcomes need not match the whole.
